MARV entry inh – blocks Marburg virus binding to or entry into cells. hit rate 1.8% among 300,000. Marburg virus pseudotyped entry inhibition, cell reporter; control for the full effect not named in the record; about a third of the inactives were read at about 46 µM. Potency, µM (highest dose often 37.8 µM), for the others: top-dose activity change, negative = inhibition, most hits filed as inhibitors; active = well fitted inhibition curve with a large enough effect; inconclusive = small, poorly fitted or top-dose-only effect, or effect the other way; inactive = flat fitted curve, though single readings scatter; tested in HEK293 cells; about a fifth of its hits are not listed in these tables; note: % is set by controls: 0 for no effect and ±100 for the full control effect; luciferase read-out
NS1 inh – influenza NS1 inhibition; Potency, µM (top dose mostly 46.1 µM), for inactives: top-dose activity, positive = more growth; S. cerevisiae slowed by influenza A NS1, growth recovery by OD600; hit rate 0.4% among 270,000; active means well fitted rising curve with a large enough effect; inconclusive means small, poorly fitted or top-dose-only effect; inactive means no such curve, though single readings can be large or run the other way; note: nearly all actives have a fitted effect of over 50% in size
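In this qHTS, NS1 from influenza A is expressed in budding yeast, where it slows growth. Cells are switched from glucose to 2% galactose medium (pH 6.0, -URA), treated with compound, and growth recovery is read at OD600.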
Cruzain inh Det – inhibitors of Trypanosoma cruzi cruzain with detergent; P25779; purified cruzain, Z-FR-AMC fluorescence, 0.01% Triton; Potency, µM, for inactives: max response, negative = inhibition, most hits filed as inhibitors; hit rate 0.43% among 200,000;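 note: plate controls were neutral wells for no effect and buffer without enzyme for full effect; nearly all actives have a fitted effect of over 40% in size; top concentration of the series not given in the record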
Target sequence (P25779 123-467 limits assumed): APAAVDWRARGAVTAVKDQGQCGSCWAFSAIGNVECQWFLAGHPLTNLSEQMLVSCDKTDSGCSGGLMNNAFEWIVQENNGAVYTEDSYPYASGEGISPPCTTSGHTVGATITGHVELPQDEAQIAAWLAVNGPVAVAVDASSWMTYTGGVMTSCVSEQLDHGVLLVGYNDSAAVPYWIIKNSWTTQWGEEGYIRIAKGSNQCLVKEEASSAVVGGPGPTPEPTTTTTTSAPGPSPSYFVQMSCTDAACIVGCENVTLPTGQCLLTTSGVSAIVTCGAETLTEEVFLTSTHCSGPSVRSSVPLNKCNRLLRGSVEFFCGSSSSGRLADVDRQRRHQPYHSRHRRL
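Enzyme 1.5 nM, Z-FR-AMC 2 uM, NaOAc 100 mM pH 5.5, DTT 5 mM, Triton X-100 0.01%; 15 min RT compound preincubation; kinetic ex360/em450, 60 s delta.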
RE007 growth inh – less growth of the S. pombe RE007 Vpr strain | hit rate 0.21% among 360,000 | AID 651644 | S. pombe RE007 Vpr strain, BacTiter-Glo ATP luminescence, 24 h; control for the full effect not named in the record | Potency, µM (series often up to 92.2 µM), without a hit: at the top dose activity change, negative = less growth; active = well fitted falling curve with a large enough effect; inconclusive = small, poorly fitted or top-dose-only effect; inactive = no such curve, though single readings can be large or run the other way;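 note: % is set by controls: 0 for no effect and ±100 for the full control effect; nearly all actives have a fitted effect of over 50% in size; the assay follows cell death caused by Vpr and the record does not say whether a fall means rescue or toxicity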
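Fission yeast RE007 carrying one integrated HIV-1 vpr copy, seeded at OD 0.01 in PMG+AL medium with 23 nL pinned compound. Grown 24 h at 30 degrees; viability read by BacTiter-Glo luminescence after 5 min.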
Lassa entry inh – inhibitors of Lassa virus binding or cell entry. AID 540256. Lassa virus pseudotype entry inhibition, cell reporter; control for the full effect not named in the record. Potency, µM (highest dose often 37.9 µM), for the others: at the top dose activity change, negative = inhibition, actives largely listed as inhibitors. hit rate 1.2% among 300,000; active means well fitted inhibition curve with a large enough effect; inconclusive means small, poorly fitted or top-dose-only effect, or effect the other way; inactive means flat fitted curve, though single readings scatter; tested in HEK293 cells; note: % is set by controls: 0 for no effect and ±100 for the full control effect; nearly all actives have a fitted effect of over 50% in size; luciferase read-out
Cruzain noTriton – cruzain (T. cruzi) inhibition without detergent; hit rate 2.3% among 200,000; purified cruzain, Z-FR-AMC fluorescence, no detergent; Potency, µM, for the others: max response, negative = inhibition, usual class: inhibitors; AID 1476;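 note: plate controls were enzyme without inhibitor for no effect and buffer without enzyme for full effect; nearly all actives have a fitted effect of over 40% in size; top concentration of the series not given in the record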
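Purified cruzain at 1.5 nM, pre-incubated 15 min with compound at room temperature in 100 mM sodium acetate pH 5.5, 5 mM DTT, 0.00005% Triton X-100. Reaction started with 2 uM Z-FR-AMC; AMC fluorescence increase over 60 s gives rate.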
SARS PLpro yeast – inhibitors of SARS-CoV papain-like protease in yeast | S. cerevisiae expressing SARS-CoV PLpro, growth rescue; control for the full effect not named in the record | Potency, µM (highest dose often 32.9 µM), without a hit: at the top dose activity, positive = growth rescue | hit rate 0.19% among 330,000 | AID 485353; active means well fitted rising curve with a large enough effect; inconclusive means small, poorly fitted or top-dose-only effect; inactive means no such curve, though single readings can be large or run the other way; note: 0% is about no effect; nearly all actives have a fitted effect of over 55% in size; growth read by luminescence after 48 h
2A StopGo – lowers the luciferase signal of an FMDV 2A StopGo reporter; human cells with a luciferase reporter of 2A StopGo recoding; control for the full effect not named in the record; Potency, µM (titrated, usually from 57.9 µM), inactives show top-dose signal change, negative = less light; hit rate 1.2% among 410,000; active = well fitted falling curve with a large enough effect; inconclusive = small, poorly fitted or top-dose-only effect; inactive = no such curve, though single readings can be large or run the other way; tested in HEK293T cells; note: % is set by controls: 0 for no effect and ±100 for the full control effect; nearly all actives have a fitted effect of over 45% in size; luciferase light after 4 h
Active calls of the source: *; & = joins results of further samples; [ ] = another dose, or the depositor's remark. Unless noted, calls come from the whole dose curve; as a rule, active = well fitted curve in the direction sought with a large enough effect; inconclusive = small, poorly fitted or top-dose-only effect, or another doubt; inactive = no such curve, though single readings can be large; an effect the other way counts as inactive or inconclusive. Potency is the fitted concentration of half-maximal effect.

How did O=C(NCN1CCc2ccccc2C1)c1cnccn1 do in these assays?
MARV entry inh: 8%; NS1 inh: -6%; Cruzain inh Det: 0.8%; RE007 growth inh: 16%; Lassa entry inh: 0%; Cruzain noTriton: -10%; SARS PLpro yeast: -5%; 2A StopGo: 10%

What do the screens show for `O=C(CSc1ccc(Br)cc1)Nc1ccccc1N1CCOCC1`?
MARV entry inh: inconclusive; NS1 inh: -8%; RE007 growth inh: -1%; Lassa entry inh: inconclusive; SARS PLpro yeast: 1%; 2A StopGo: -25%

What do the screens show for `CN(c1cccnc1)c1ncnc2[nH]ncc12`?
MARV entry inh: 10%[46.1 µM]; NS1 inh: 9%; RE007 growth inh: 5%; Lassa entry inh: 18%; SARS PLpro yeast: 0%; 2A StopGo: -3%

What do the screens show for `COc1ccc([N+](=O)[O-])cc1NC(=O)Nc1cccc(Cl)c1`?
MARV entry inh: -13%; NS1 inh: -19%; Cruzain inh Det: -5.1%; RE007 growth inh: -12%; Lassa entry inh: -10%; Cruzain noTriton: inconclusive; SARS PLpro yeast: 11%; 2A StopGo: inconclusive

What do the screens show for `COc1cc2c(cc1OC)C(COc1ccc(C(C)C)cc1)N(C(=O)COc1ccccc1)CC2` (stereo not given)?
Cruzain inh Det: 0.5%; Lassa entry inh: inconclusive; Cruzain noTriton: 3%; 2A StopGo: -24%

Results for Cc1csc(NC(=O)CCN2C(=O)c3ccccc3S2(=O)=O)n1 ?
MARV entry inh: -1%; NS1 inh: -10%; Cruzain inh Det: 1.1%; RE007 growth inh: 8%; Lassa entry inh: 7%; Cruzain noTriton: -11%; SARS PLpro yeast: -1%

Results for O=C(NCc1ccco1)c1ccc(CS(=O)Cc2ccc(Cl)cc2)o1 (stereo not given) ?
NS1 inh: -15%; RE007 growth inh: 5%; SARS PLpro yeast: 3%; 2A StopGo: -2%

What do the screens show for `CC(=O)Nc1sc(C)c(C)c1CN1CCN(S(=O)(=O)c2ccccc2)CC1`?
MARV entry inh: -12%&-12%; NS1 inh: -18%; Cruzain inh Det: -5.0%; RE007 growth inh: -2%; Lassa entry inh: 2%; Cruzain noTriton: -4%; SARS PLpro yeast: -1%; 2A StopGo: -19%

What do the screens show for `COc1ccccc1NC(=O)c1ccc(NC(=O)c2cc3c(s2)CCC3)cc1`?
MARV entry inh: inconclusive; NS1 inh: -8%; Cruzain inh Det: -5.4%; RE007 growth inh: 7%; Lassa entry inh: -25%; Cruzain noTriton: -11%; SARS PLpro yeast: inconclusive; 2A StopGo: inconclusive

How did COC(=O)c1oc2ccc(Br)cc2c1NC(=O)CCN1CCOCC1 do in these assays?
MARV entry inh: inconclusive; NS1 inh: -2%; Cruzain inh Det: 3.0%; RE007 growth inh: -6%; Lassa entry inh: 3%; Cruzain noTriton: -2%; SARS PLpro yeast: -3%; 2A StopGo: 0%

How did CCC(C(=O)Nc1cc(C(F)(F)F)ccc1Cl)n1nc(C)c2sc3ccccc3c2c1=O (stereo not given) do in these assays?
MARV entry inh: 8%[46.1 µM]; Cruzain inh Det: -2.1%; Lassa entry inh: -2%[46.1 µM]; Cruzain noTriton: 9%; 2A StopGo: -29%

How did O=C(/C=C/c1ccc(Cl)cc1)NCc1cccs1 do in these assays?
MARV entry inh: -3%; NS1 inh: -6%; Cruzain inh Det: -6.9%; RE007 growth inh: 25%; Lassa entry inh: 5.8µM*; Cruzain noTriton: -5%; SARS PLpro yeast: -17%; 2A StopGo: 4%

What do the screens show for `CC(=O)Nc1nc2ccc(S(=O)(=O)N3CCCCC3)cc2s1`?
MARV entry inh: 11%[46.1 µM]; NS1 inh: 13%; RE007 growth inh: 11%; Lassa entry inh: 31%[46.1 µM]; SARS PLpro yeast: -4%; 2A StopGo: 3%

Results for Cn1c(=O)oc2cc(S(=O)(=O)NC3CCCc4ccccc43)ccc21 (stereo not given) ?
NS1 inh: 2%; Cruzain inh Det: 2.4%; RE007 growth inh: 2%; Cruzain noTriton: 0%; SARS PLpro yeast: -4%; 2A StopGo: -11%

How did COc1ccccc1-c1cn[nH]c1-c1ccc(OCc2ccc([N+](=O)[O-])cc2)cc1O do in these assays?
MARV entry inh: 9%[46.1 µM]; NS1 inh: 8%; RE007 growth inh: -9%; Lassa entry inh: 6%; SARS PLpro yeast: 1%; 2A StopGo: -26%

How did CCOc1ccc(CCNS(=O)(=O)c2ccc(-c3ccc(=O)[nH]n3)o2)cc1OCC do in these assays?
NS1 inh: 11%; RE007 growth inh: -6%; SARS PLpro yeast: -3%; 2A StopGo: 17%

How did COc1ccc(C(=O)NCCN2CCCC2)cc1 do in these assays?
MARV entry inh: -17%; NS1 inh: 12%; RE007 growth inh: 0%; Lassa entry inh: -4%; SARS PLpro yeast: 0%; 2A StopGo: -8%

Results for CN(C)c1ccc(/C=N/NC(=O)CSc2ccccn2)cc1 ?
MARV entry inh: 30%[46.1 µM]; NS1 inh: -5%; RE007 growth inh: 37%; Lassa entry inh: inconclusive; SARS PLpro yeast: 0%; 2A StopGo: 58%[activator]

How did CC(=O)C1=C(O)C(=O)N(Cc2cccnc2)C1c1ccc(C(C)C)cc1 (stereo not given) do in these assays?
MARV entry inh: 26%; NS1 inh: 21%; RE007 growth inh: 6%; Lassa entry inh: 4%; SARS PLpro yeast: -1%; 2A StopGo: -16%

What do the screens show for `Cn1c(=O)n(C)c2cc(N3CCCCC3)c(NC(=O)c3cccc(Cl)c3)cc21`?
MARV entry inh: 23%[46.1 µM]; NS1 inh: -1%; RE007 growth inh: -13%; Lassa entry inh: 23%[46.1 µM]; SARS PLpro yeast: 6%; 2A StopGo: -22%

What do the screens show for `Cc1cc(C)nc(SCc2nnc(SCC(=O)N3CCCc4ccccc43)o2)n1`?
MARV entry inh: -16%; NS1 inh: -14%; Cruzain inh Det: 2.2%; RE007 growth inh: 5%; Lassa entry inh: 0%; Cruzain noTriton: 4%; SARS PLpro yeast: 6%; 2A StopGo: -16%

Results for O=C(CN(C(=O)Cn1nnc(-c2ccc(F)cc2)n1)c1ccc(F)c(Cl)c1)NCC1CCCO1 (stereo not given) ?
NS1 inh: -6%; RE007 growth inh: -25%; SARS PLpro yeast: 0%; 2A StopGo: -5%

What do the screens show for `CCOC(=O)/C(C#N)=C/Nc1cc(OC)ccc1OC`?
MARV entry inh: 10%; NS1 inh: -4%; Cruzain inh Det: -7.9%; RE007 growth inh: -2%; Lassa entry inh: -15%; Cruzain noTriton: -6%; SARS PLpro yeast: inconclusive; 2A StopGo: -21%

Results for CCOc1ccc(-n2c(O)c(C=NCCN3CCNCC3)c(=O)[nH]c2=O)cc1 ?
MARV entry inh: -10%&-10%; NS1 inh: 4%; Cruzain inh Det: 7.8%; RE007 growth inh: 1%; Lassa entry inh: 6%; Cruzain noTriton: 9%; SARS PLpro yeast: 4%; 2A StopGo: -24%

What do the screens show for `Fc1ccc2[nH]c3c(N4CCN(C5CCCCC5)CC4)ncnc3c2c1`?
MARV entry inh: 1%; NS1 inh: -4%; Cruzain inh Det: -4.2%; Cruzain noTriton: 4%; SARS PLpro yeast: 1%

How did COc1ccc(-c2nnc(-c3cccnc3)o2)cc1OC do in these assays?
MARV entry inh: inconclusive; NS1 inh: -17%; Cruzain inh Det: -4.9%; RE007 growth inh: 3%; Lassa entry inh: inconclusive; Cruzain noTriton: -7%; SARS PLpro yeast: 16%; 2A StopGo: 21%

What do the screens show for `Cc1ccccc1-c1nc(CN2CCC(C(=O)NCC3CCCO3)CC2)c(C)o1` (stereo not given)?
MARV entry inh: -7%; NS1 inh: 2%; Cruzain inh Det: 5.1%; RE007 growth inh: -3%; Lassa entry inh: -5%; Cruzain noTriton: 3%; SARS PLpro yeast: -1%; 2A StopGo: -5%

Results for CCC1CCCCN1P(=O)(c1ccc(C)o1)C(C)(C)C (stereo not given) ?
MARV entry inh: 15%; NS1 inh: -11%; Cruzain inh Det: -1.2%; RE007 growth inh: 1%; Lassa entry inh: -1%; Cruzain noTriton: 16%; SARS PLpro yeast: 2%; 2A StopGo: inconclusive

What do the screens show for `CN(Cc1ccccc1)c1nnc(N)s1`?
MARV entry inh: -8%; NS1 inh: inconclusive; Cruzain inh Det: -0.7%; RE007 growth inh: 1%; Lassa entry inh: 2%; Cruzain noTriton: 2%; SARS PLpro yeast: -19%; 2A StopGo: -20%

How did COc1ccc(S(=O)(=O)N2CCOC2CNC(=O)C(=O)NCc2ccco2)cc1 (stereo not given) do in these assays?
MARV entry inh: 9%[46.1 µM]; NS1 inh: -69%; RE007 growth inh: -14%; Lassa entry inh: 2%; SARS PLpro yeast: 0%; 2A StopGo: -7%

Results for CCOc1ccc(CCNC(=O)C2CCCN(c3nnc(-n4cccc4)s3)C2)cc1OCC (stereo not given) ?
MARV entry inh: -19%&-19%; NS1 inh: -1%; Cruzain inh Det: 3.7%; RE007 growth inh: 17%; Lassa entry inh: 1%; Cruzain noTriton: inconclusive; SARS PLpro yeast: 7%; 2A StopGo: -9%

What do the screens show for `COc1ccc(NC(=O)CSc2oc(-c3ccc(F)cc3)nc2S(=O)(=O)c2ccc(C)cc2)c(OC)c1`?
MARV entry inh: 4%[46.1 µM]; Cruzain inh Det: -0.9%; Lassa entry inh: -8%[46.1 µM]; Cruzain noTriton: 8%; 2A StopGo: -3%

What do the screens show for `Cn1cc(NC(=O)CCl)cn1`?
MARV entry inh: inconclusive; RE007 growth inh: 27%; Lassa entry inh: inconclusive; SARS PLpro yeast: 2%; 2A StopGo: inconclusive

As a short view, some entries already given.
How did CCOc1ccc(CCNS(=O)(=O)c2ccc(-c3ccc(=O)[nH]n3)o2)cc1OCC do in these assays?
NS1 inh: 11%; RE007 growth inh: -6%; SARS PLpro yeast: -3%; 2A StopGo: 17%

How did COc1ccc(C(=O)NCCN2CCCC2)cc1 do in these assays?
MARV entry inh: -17%; NS1 inh: 12%; RE007 growth inh: 0%; Lassa entry inh: -4%; SARS PLpro yeast: 0%; 2A StopGo: -8%

Screens: PubChem BioAssay, National Center for Advancing Translational Sciences (NCATS)
